Screens deposited in PubChem by National Center for Advancing Translational Sciences (NCATS).
Rango-impB inh = qHTS Assay for Inhibitors of Rango (Ran-regulated importin-beta cargo) - Importin beta complex formation. Importin subunit beta-1 (Homo sapiens), Q14974. Rango CFP/YFP FRET sensor + importin beta, 45 min. Potency, µM (series often up to 92.2 µM), inactives show at the top dose inhibition of complex formation. 0.031% of 340,000 active. AID 540263, 2011; active = rising FRET ratio curve, often small or poorly fitted; inconclusive = mostly compound fluorescence or quenching in the first reads; inactive = flat curves in all reads;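 also: potency is read from the fitted curve at half-maximal effect; 0% = DMSO wells and 100% = buffer wells lacking importin beta; nearly all actives have a fitted effect of over 15% in size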
Target sequence (Q14974 whole entry, looked up): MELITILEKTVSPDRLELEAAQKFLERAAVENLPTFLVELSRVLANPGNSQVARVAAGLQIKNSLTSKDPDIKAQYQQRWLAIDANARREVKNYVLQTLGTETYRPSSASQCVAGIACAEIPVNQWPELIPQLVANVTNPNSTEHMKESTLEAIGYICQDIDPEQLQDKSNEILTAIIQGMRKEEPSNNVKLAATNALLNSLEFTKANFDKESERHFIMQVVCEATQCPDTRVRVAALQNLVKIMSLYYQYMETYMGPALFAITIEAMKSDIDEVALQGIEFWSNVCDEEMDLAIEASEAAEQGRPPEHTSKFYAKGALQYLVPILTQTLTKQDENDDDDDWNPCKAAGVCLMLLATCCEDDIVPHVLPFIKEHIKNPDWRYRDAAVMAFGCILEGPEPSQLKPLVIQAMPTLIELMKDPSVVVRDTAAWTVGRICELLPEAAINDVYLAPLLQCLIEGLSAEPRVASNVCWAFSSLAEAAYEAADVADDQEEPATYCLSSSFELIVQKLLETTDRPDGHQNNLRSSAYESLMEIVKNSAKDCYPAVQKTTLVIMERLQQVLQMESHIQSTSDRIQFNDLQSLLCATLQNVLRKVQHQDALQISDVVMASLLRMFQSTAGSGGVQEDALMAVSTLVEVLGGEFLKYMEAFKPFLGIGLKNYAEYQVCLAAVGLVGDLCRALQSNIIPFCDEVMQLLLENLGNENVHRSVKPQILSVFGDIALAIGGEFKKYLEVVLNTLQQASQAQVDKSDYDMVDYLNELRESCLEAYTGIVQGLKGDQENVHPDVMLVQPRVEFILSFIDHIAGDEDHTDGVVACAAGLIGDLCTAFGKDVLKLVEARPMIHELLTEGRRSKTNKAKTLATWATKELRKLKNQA
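Inhibition scored from the CFP 486 nm/YFP 530 nm FRET ratio 45 min after adding 0.125 microM importin beta to 50 nM Rango biosensor preincubated 5 min with compound (room temperature, PBS with DTT, Tween-20, BSA). No-importin wells as positive control.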
miR-21 FLuc = qHTS Assay for Modulators of miRNAs and/orActivators of miR-21; HeLa miR-21 FLuc reporter, luciferase, 48 h; 340,000 tested, under 10 active; Potency, µM (series often up to 38.3 µM), for inactives: top-dose reporter change, positive = more light; active = well fitted rising curve with a large enough effect; inconclusive = small, poorly fitted or top-dose-only effect; inactive = no such curve, though single readings can be large or run the other way;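 also: % of control where 0% means no effect; miR-21 action dims this reporter so a rising signal means less miR-21 action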
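Luminescence from a firefly luciferase reporter carrying a miR-21 binding site downstream, stably expressed under a CMV promoter in HeLa cells that make miR-21 endogenously, reports miRNA modulation after 48 h compound exposure up to approximately 40uM final.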
GLA inh pH 4.5 = qHTS Assay for Inhibitors of Human alpha-Galactosidase at pH 4.5. Alpha-galactosidase A (Homo sapiens), P06280. purified enzyme, 4-MU-alpha-Gal fluorescence, pH 4.5. activity change, negative = inhibition, % at 105 µM. 230,000 tested, under 10 active. AID 1467, 2008; inconclusive = small, poorly fitted or top-dose-only inhibition, or a rising curve; inactive = flat fitted curve, though single readings scatter; no compound was filed as active;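 also: 0% = full activity with enzyme and -100% = basal without enzyme; dose as in the result columns while the protocol names 77 µM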
Rango release inh = qHTS Assay for Inhibitors of RanGTP induced Rango (Ran-regulated importin-beta cargo) - Importin beta complex dissociation | Snurportin-1 (Homo sapiens) + GTP-binding nuclear protein Ran (Homo sapiens) + Importin … | Biochemical FRET Rango-importin beta, RanGTP-induced dissociation | Potency, µM (doses to about 46.1 µM), for the others: top-dose activity change, negative = inhibition | 0.071% of 340,000 active | AID 540253, 2011; active means falling FRET ratio curve, often poorly fitted, with flat reads before Ran was added; inconclusive means other falling curves, or compound fluorescence or quenching; inactive means flat or rising ratio curve;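 also: potency is read from the fitted curve at half-maximal effect; % of control where 0% means no effect; nearly all actives have a fitted effect of over 45% in size; -100% = wells without RanGTP and RCC1; the record marks most hits as doubtful in a second field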
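Rango (0.1 uM)–importin beta (0.25 uM) complex; RanGTP-RCC1 trigger; 45 min RT; CFP/YFP FRET read.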
An asterisk follows results filed as active; u = inconclusive; x = not tested or not shown; & = joins results of further samples.

SMILES	Rango-impB inh	miR-21 FLuc	GLA inh pH 4.5	Rango release inh
CCOc1ccc(S(=O)(=O)NCCC(=O)NCCCSc2ccccc2)cc1	1.6%	x	x	1.2%
CC1CCN(C(=O)C(=O)c2cn(CC(=O)N3CCCC3)c3ccccc23)CC1	-0.1%	-3.2%	x	3.4%
Cc1nccn1Cc1ccccc1	0.1%	1.2%	x	19.9%
Cc1cc(C)nc(NNC2=CC(=O)CC(C)(C)C2)n1	u	7.6%	0.1	-15.8%
O=C(CCN1C(=O)c2ccccc2C1=O)NCCN1CCOCC1	2.4%	-2.8%	-10.3	8.2%
FC(F)(F)c1cccc(Cc2noc(CN3CCSCC3)n2)c1	0.4%	-3.0%	-2.8	-15.6%
O=C(c1ccccc1)n1c(=O)c(F)cn(COCCBr)c1=O	-1.9%	-4.6%	x	9.3%
Cc1oncc1C(=O)Nc1ccc2ccccc2c1	-0.2%	-60.7%	x	1.7%
CN(CC(=O)Nc1ccc(Cl)cc1)C(=O)Cn1[nH]c(=O)c2ccccc2c1=O	-0.9%	x	x	0.1%
O=C(NCCN1CCOCC1)c1cc2c(=O)n3ccccc3nc2n1Cc1ccccc1	u	-14.0%	u	u
COc1ccc(C2(CNC(=O)/C=C/c3ccco3)CCCC2)cc1OC	2.5%	-10.5%	-17.4	-11.7%
COc1cc2c(cc1OC)CN(C(=O)CSc1nc(C)cc(C)c1C#N)CC2	5.3%	-21.3%	6.7	u
C=CCN1C(=O)c2ccc(C(=O)N(CC)CC(=O)Nc3cc(Cl)ccc3C)cc2C1=O	1.1%	x	x	-9.3%
CCOc1ccccc1Nc1ccnc2cc(Cl)ccc12	-0.1%	3.1%	-8.0	-4.9%
O=C(COc1cccc(C(F)(F)F)c1)Nc1ccc2[nH]ncc2c1	-0.8%	5.2%	x	0.3%

Brought forward from above: 5 entries, followed by the next part.
SMILES	Rango-impB inh	miR-21 FLuc	GLA inh pH 4.5	Rango release inh
COc1ccc(C2(CNC(=O)/C=C/c3ccco3)CCCC2)cc1OC	2.5%	-10.5%	-17.4	-11.7%
COc1cc2c(cc1OC)CN(C(=O)CSc1nc(C)cc(C)c1C#N)CC2	5.3%	-21.3%	6.7	u
C=CCN1C(=O)c2ccc(C(=O)N(CC)CC(=O)Nc3cc(Cl)ccc3C)cc2C1=O	1.1%	x	x	-9.3%
CCOc1ccccc1Nc1ccnc2cc(Cl)ccc12	-0.1%	3.1%	-8.0	-4.9%
O=C(COc1cccc(C(F)(F)F)c1)Nc1ccc2[nH]ncc2c1	-0.8%	5.2%	x	0.3%
Cc1sc2nc(CSCC(=O)Nc3ccc(N4CCOCC4)cc3)[nH]c(=O)c2c1C	0.3%	8.4%	0.4	-14.5%
COc1ccc(NC(=O)NNC(=O)COc2ccc(Cl)cc2C)cc1OC	-4.0%	0.7%	x	21.0%
CCc1ccc(C(=O)Nc2ccc3c(c2)n(C)c(=O)n3C)cc1	-0.1%	-32.4%	x	-14.2%
COc1ccc(OCC(=O)NNC(=S)NC(=O)c2ccc(Br)o2)cc1	-0.2%	-4.9%	x	20.8%
CCN(CC(=O)Nc1c(F)cccc1F)C(=O)CC1CCCC1	-0.1%	x	x	8.8%
CCOc1ccc(N2C(=O)CC(Sc3nc(C)cc(C)c3C#N)C2=O)cc1 (stereo not given)	-2.7%	-9.0%	5.1	u
COc1ccccc1CCNS(=O)(=O)c1cc2c3c(c1)C(C)C(=O)N3CCC2 (stereo not given)	1.4%	5.4%	x	7.1%
COc1ccc(-n2c(Cc3cccn3C)nnc2SCC(=O)NCc2ccco2)cc1	1.8%	-6.3%	8.9	31.1%
CC(=O)Nc1ccc(N2S(=O)(=O)c3ccccc3S2(=O)=O)cc1	2.3%	-6.5%	-18.7	11.5%
O=C(COC(=O)c1cccnc1Nc1cccc(C(F)(F)F)c1)NCc1ccc2c(c1)OCO2	10.7%	-1.3%	-2.3	0.2%
COC(=O)CN(C#N)c1nc(C)cc(C)n1	-3.0%	-5.2%	2.8	-4.8%
CCOC(=O)N1CCN(CC(=O)Nc2ccc(F)cc2)CC1	-1.6%	0.1%	7.1	-12.4%
Cc1cc(C(=O)CN2C(=O)NC3(CCCC3)C2=O)c(C)n1-c1ccc2c(c1)OCO2	1.6%	-31.7%	0.6	22.4%
OC1(C(F)(F)F)CC(O)(C(F)(F)F)n2nc(-c3ccccc3)cc2N1 (stereo not given)	-4.3%	-27.2%	1.9	5.4%
CNC(=O)c1nc[nH]c1C(=O)NC	0.9%	6.6%	11.7	-2.3%
CCOC(=O)CCP(=O)(O)C(C)(O)c1ccccc1 (stereo not given)	3.5%	-3.0%	-6.9	13.5%
O=C(COc1ccc(Cl)cc1)NNC(=O)c1ccccn1	-0.6%	11.3%	-0.3	-0.5%
Cc1ccccc1NC(=O)Cc1c[nH]c2ccccc12	7.5%	-9.3%	x	7.2%
O=C(CC(=O)NC1CCCCC1)N/N=C/c1cccc2ccccc12	-4.6%	-7.9%	3.7	2.9%
CCCN(CC1CCCO1)C(=O)CCc1nnc(CCc2ccc(OC)cc2)o1 (stereo not given)	-0.3%	-9.6%	x	-12.5%
O=C(CSC(=S)N1CCOCC1)Nc1ncc2c(n1)CC(c1ccco1)CC2=O (stereo not given)	-1.7%	-1.9%	-5.9	0.4%
Cc1nnc(NC(=O)CCC(=O)N2CCN(CCc3ccccc3)CC2)s1	x	2.1%	-0.1	x
CCC(=O)Nc1c(-c2ccccc2Cl)c(=O)c2ccccc2n1C	-0.2%	0.0%	x	-1.4%
Cc1ccc2c(c1)c1c3n2CCN(C(=O)CN2CCN(C)CC2)C3CCC1 (stereo not given)	5.3%	-28.3%	1.6	-7.9%
c1ccc(COC(CN2CCCCCC2)CN2CCCCCC2)cc1	u	23.8%	-8.4	-12.1%
COc1ccc(C)cc1NC(=S)N1CCN(c2ncccn2)CC1	0.9%	-12.7%	6.1	1.7%
CN(C)c1ccc(NC(=O)CCN2CCN(c3ccccn3)CC2)cc1	7.0%	-4.8%	x	5.2%
O=C(Cc1c(F)cccc1Cl)Nc1ccncc1	1.0%	12.3%	7.1	10.4%
COC(=O)[C@@]1(Cc2ccc(OC)cc2)[C@H]2c3cc(C(=O)N4CCCC4)n(Cc4ccc(C)o4)c3C[C@H]2CN1C(=O)c1ccccc1	x	22.5%	-10.2&-12.2	x
Cc1cccc(CCN(C(=O)c2csnn2)C(C(=O)NC2CCCC2)c2ccco2)c1 (stereo not given)	-0.1%	4.2%	x	1.1%

Looked up above:
Under Rango release inh, CCOc1ccc(S(=O)(=O)NCCC(=O)NCCCSc2ccccc2)cc1 has 1.2%
Under Rango release inh, O=C(CC(=O)NC1CCCCC1)N/N=C/c1cccc2ccccc12 has 2.9%
Under Rango release inh, O=C(CCN1C(=O)c2ccccc2C1=O)NCCN1CCOCC1 has 8.2%
Under GLA inh pH 4.5, COC(=O)[C@@]1(Cc2ccc(OC)cc2)[C@H]2c3cc(C(=O)N4CCCC4)n(Cc4ccc(C)o4)c3C[C@H]2CN1C(=O)c1ccccc1 has -10.2&-12.2
Under miR-21 FLuc, O=C(COc1cccc(C(F)(F)F)c1)Nc1ccc2[nH]ncc2c1 has 5.2%
Under Rango-impB inh, CC(=O)Nc1ccc(N2S(=O)(=O)c3ccccc3S2(=O)=O)cc1 has 2.3%

Next compounds.
SMILES	Rango-impB inh	miR-21 FLuc	GLA inh pH 4.5	Rango release inh
CC(=O)N(CCN1CCOCC1)Cc1cc2cc3c(cc2nc1Cl)OCO3	-1.2%	21.8%	-11.1	-7.1%
Cc1ccccc1-c1nc(CN2CCC(C(=O)NCc3cccs3)CC2)c(C)o1	0.4%	-1.6%	3.1	-7.0%
OCCC1CN(Cc2cccc(-n3cccn3)c2)CCN1Cc1ccccc1 (stereo not given)	-2.2%	-2.4%	9.3	5.0%
COc1ccc(N(CC(=O)NC2CCCCCCC2)S(=O)(=O)c2c(C)nn(C)c2C)cc1	-2.0%	-1.8%	-0.5	-1.1%
O=C(O)C1CC=CCC1C(=O)NC1CCCCC1 (stereo not given)	-1.7%	0.5%	-15.3	-7.8%
CCSc1nnc(NC(=O)/C=C/c2ccco2)s1	-3.0%	-35.2%	-2.3	2.5%
COc1ccc(CN2CCCC(CNC(=O)c3ccc(F)cc3)C2)c(F)c1 (stereo not given)	-2.3%	-6.5%	0.6	12.6%
O=C(Nc1ccc(F)cc1F)C1CCN(C(=O)c2ccc(Br)cc2)CC1	-3.9%	0.0%	-5.0	0.4%
CCCCCCn1c(CN2CCCCC2CC)nc2c1c(=O)n(C)c(=O)n2C (stereo not given)	0.0%	-0.9%	-0.5	-8.5%
Cc1nc2cc(NC(=O)N(C)c3ccc4ccccc4c3)ccc2o1	4.3%	-13.6%	6.2	7.3%
CCOc1ccccc1NC(=O)Cn1nnc(-c2ccc(OCC)c(OCC)c2)n1	-0.4%	-9.9%	1.6	-6.0%
COc1cccc(C(=O)Nc2cc(C(F)(F)F)ccc2Cl)c1	6.4%	-13.1%	-2.0	12.5%
COc1ccc(NS(=O)(=O)c2ccc3oc(SCc4ccc(F)cc4)nc3c2)cc1	-0.5%	14.7%	0.2	2.8%
CCOc1ccc(Cl)cc1CN1CCOCC1	5.5%	-10.2%	5.1	7.4%
O=C(c1ccc(NC(=S)NCc2ccc(Cl)cc2)cc1)N1CCCCC1	u	-0.1%	2.0	-2.7%
O=C(CSC1=NC2(CCCCCC2)N=C1c1ccccc1)Nc1ccc2c(c1)OCCO2	0.8%	-10.5%	0.4	0.3%
O=C(NCCc1ccccn1)C1CCCN1S(=O)(=O)c1ccc(Cl)cc1 (stereo not given)	3.1%	-1.0%	x	-1.9%
Cc1ccc2nc(-c3ccccc3)cc(C(=O)Nc3cccnc3)c2c1	-3.3%	x	x	-7.5%
Cc1cc(C)n(Cc2ccccc2)c(=O)c1S(=O)(=O)c1ccccc1	3.5%	-0.3%	2.3	0.6%
COC(CNC(=O)CN1CCN(Cc2ccccc2F)C1=O)OC	2.9%	0.9%	x	-8.3%
O=C(COc1ccc(S(=O)(=O)N2CCOCC2)cc1)NC1CCCC1	-0.4%	-3.7%	1.8	-5.0%
CCOCCCNC(=O)c1ccc2c(c1)ncn2-c1ccc(C)cc1C	1.5%	-4.2%	x	11.3%
Cc1ccc(/C=C/C(=O)OCC(=O)N2CC(=O)Nc3ccccc32)o1	0.1%	-0.8%	5.3	2.2%
CCOC(=O)c1c(NC(=O)CC2SC(=NC)N(C)C2=O)sc(C)c1C (stereo not given)	2.4%	-2.0%	2.5	1.2%
O=C(O)c1c2cc(Br)ccc2nc2[nH]c(=O)[nH]c(=O)c12	u	x	x	-7.8%
OCC1OC(Oc2c(Br)cc(Br)cc2Br)C(O)C(O)C1O (stereo not given)	8.3%	x	x	-5.7%
COc1ccc(NC(=S)N(CCN(C)C)Cc2cccs2)cc1	-0.2%	-11.2%	0.0	-1.4%
CCc1ccc(OCc2ccc(C(=O)OC)o2)cc1	6.0%	-65.3%	x	3.9%
CC(C)CC(CO)N1CCN(C(=O)c2cccc(C(F)(F)F)c2)CCC1=O (stereo not given)	-2.1%	-7.0%	4.6	-9.7%

Not all compounds are listed; the hit share may differ from the screen's.
